# Sa growth 42C = blocks Staphylococcus aureus growth; S. aureus RN4220 growth, OD600, 20 h, 42 °C; active compounds read low; relative growth, % (no concentration beside the values); 170,000 compounds, 0.53% hits; AID 720641;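 active = growth at 42 °C up to 50% and 20 or more points under that at 30 °C, or under 10% at both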;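 also: 300 nL library stock went into each well; scaled to the means of positive and negative controls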
# GIV Gai3 FP = GIV-Galpha-i interaction inhibition | 210,000 compounds, 0.42% hits | AID 1224905 | percent of control (FP), % (no concentration beside the values) | P08753 | Galpha-i3/FITC-GIV peptide fluorescence polarization, 90 min; active compounds read low; scaled: aluminum fluoride 0%, vehicle 100%;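 active = replicate mean at 85% of control or lower, very high polarization wells dropped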;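 also: wells of about 15 µL received 100 nL stock; the first replicate is given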
# Target sequence (P08753 whole entry, looked up): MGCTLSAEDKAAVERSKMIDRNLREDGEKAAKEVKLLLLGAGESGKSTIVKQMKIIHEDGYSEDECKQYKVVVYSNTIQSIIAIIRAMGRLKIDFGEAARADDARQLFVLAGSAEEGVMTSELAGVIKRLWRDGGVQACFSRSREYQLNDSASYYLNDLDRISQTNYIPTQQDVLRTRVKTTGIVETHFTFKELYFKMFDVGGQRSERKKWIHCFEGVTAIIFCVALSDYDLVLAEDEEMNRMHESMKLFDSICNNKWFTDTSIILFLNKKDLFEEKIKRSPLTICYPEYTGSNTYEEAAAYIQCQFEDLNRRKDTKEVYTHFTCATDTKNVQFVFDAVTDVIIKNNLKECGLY
# HCMV UL50-53 inh = disrupts HCMV UL50-UL53 complex binding; AID 1918969; inhibition, % (concentration not given with the values); HTRF UL50-UL53 interaction, normalized percent inhibition; 190,000 compounds, 0.15% hits;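 active = both replicates at 50% or more, plus weaker picks with an unusually low signal ratio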;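 also: stock transfer was 100 nL into about 20 µL; 0% = negative control wells and 100% = wells with untagged competitor protein; inactives centre near -12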
# Sa growth 42C second temp = recorded beside Sa growth 42C, whose call it bears; relative growth, %; measured here: growth at 30 °C;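 optical density after 20 h as mean of two plates; 100% = untreated growth and lower means inhibition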
# The depositor's hits bear a star; · = not tested or not shown; & = joins results of further samples. Rows are unselected; any-hit rate near 0.79%.
SMILES,Sa growth 42C,Sa growth 42C second temp,GIV Gai3 FP,HCMV UL50-53 inh
N#Cc1c(Cl)ncc2c1N(Cc1ccccc1)CC2,107,111,106,6
FC(F)(F)c1cc(-c2ccccc2)nc(NCCc2ccccc2)n1,109,93,98,·
Cc1cccc(-n2ncc(C(=O)N3CCOCC3)c2C2CCN(C(=O)OC(C)(C)C)CC2)c1,86,93,105,·
COc1ccc(N2CCN(C(c3ccc(F)cc3)c3sc4nc(-c5ccco5)nn4c3O)CC2)cc1 (stereo unspecified),111,83,99,·
Cc1cc(C)cc(-n2c(SCC(N)=O)nc3c(oc4ccccc43)c2=O)c1,116,74,105,-8
O=C(O)C1C2C=CC(C2)C1C(=O)NCCO (stereo unspecified),118,81,95,-34
COC(=O)c1c(C)oc2cc(Br)c(OC(=O)c3ccc(Cl)cc3)cc12,·,·,100,-3
CCn1cc(S(=O)(=O)c2ccc(Cl)cc2)c(=O)c2cc(F)c(N3CCOCC3)cc21,117,93,110,·
CC(=O)c1ccc(NC(=O)c2cc3c([nH]c2=O)CC(c2ccccc2)CC3=O)cc1 (stereo unspecified),98,88,102,-3
CCCCOc1cccc(C(=O)Nc2cccc3ccc(C)nc23)c1,100,94,101,-9
CCOC(=O)c1ccc(NC(=O)C2CCCN(c3ccc(Sc4ccc(C)cc4)nn3)C2)cc1 (stereo unspecified),97,88,103,3
Cn1c2c(c3cc(Oc4ccccc4)ccc31)CCCC2=O,112,97,111&99,-10
CCC(=O)N1N=C(C(F)(F)F)CC1(O)c1ccc(F)cc1 (stereo unspecified),100,96,·,-1
O=C(CC1C(=O)N(c2ccccc2)C(=O)N1Cc1ccc(F)cc1)Nc1cccc(F)c1 (stereo unspecified),85,66,101,·
O=C(O)CCC(=O)N1N=C(c2ccc(Br)cc2)CC1c1cn(-c2ccccc2)nc1-c1ccccc1 (stereo unspecified),·,·,105,4
O=C(Nc1ccccc1)Nc1ccc(Cn2cnc(-c3nc(-c4ccc(F)cc4)no3)c2)cc1,·,·,103,0
COc1ccc(Cl)cc1NC(=O)C(C)N1c2ccccc2CC1C (stereo unspecified),116,97,·,-23
COc1ccc(-c2nc3ccccc3c(=O)n2NCc2cc(Br)cs2)cc1OC,·,·,100,-10
CSc1sc(SC)c(CO)c1CO,96,92,·,-17
CC(C)CNS(=O)(=O)c1ccc(CCC(=O)Nc2ccc3c(c2)OCO3)cc1,105,81,109,-1
O=C(NCc1ccccc1)c1c(O)c2ccccc2[nH]c1=O,·,·,110,-23
Cc1ccc(CNC(=O)Cn2cc(S(=O)(=O)Cc3ccccc3Cl)c3ccccc32)cc1,100,84,103,·
Cc1cc(N2CCC(C(=O)NCCC(C)C)CC2)n2nc(C)c(-c3ccc(Cl)cc3)c2n1,104,89,108,-29
Cc1cc(C(=O)N(CCc2ccccc2)c2nc3ccccc3s2)on1,105,101,·,9
Cc1ccc(NC(=O)C2CCCN2S(=O)(=O)c2ccc3nc(-c4ccccc4)[nH]c3c2)cc1F (stereo unspecified),78,91,110,·
SMILES,Sa growth 42C,Sa growth 42C second temp,GIV Gai3 FP,HCMV UL50-53 inh
C=C1SC(Nc2ccc(C)cc2)=NC1(C)C,70,82,106,-6
CC(CC(=O)Nc1nc(-c2cccs2)cs1)c1ccccc1 (stereo unspecified),109,100,·,-19
COc1ccc(-c2c3c(=O)n(C)c(=O)n(C)c3c3n2-c2ccccc2NC3c2ccco2)cc1 (stereo unspecified),113,88,104,-10
CCOc1ccc(N(CC)C(=O)Cn2cnc3sc(C)c(S(=O)(=O)N4CCN(c5ncccn5)CC4)c3c2=O)cc1,107,90,104,-14
CCOC(=O)c1[nH]cnc1C(=O)Nc1ccc(F)cc1,106,92,108,-9
O=C(CCSc1ccc(Br)cc1)Nc1cccnc1,87,97,·,14
O=C(CCn1ccc2cc(S(=O)(=O)N3CCCC3)ccc21)NC1CC1,105,87,105,-32
COC(=O)c1ccc(OC)c(I)c1,99,80,109,-22
S=C(NCCC1=CCCCC1)Nc1ccc2nsnc2c1,73,38,102,·
COc1ccc2[nH]cc(CCNC(=O)CCc3nnc(C(=O)Nc4ccccc4)s3)c2c1,·,·,97,-14
Nc1nc(CSc2nnc3c(n2)[nH]c2ccccc23)cs1,91,71,98,·
C/C(N)=C(/C#N)C(=O)CSc1ccccc1F,85,94,·,-17
CCOC(=O)c1cnn(C(=O)Cc2cccc(OC)c2)c1N,96,74,102,-32
CC(C)CC(=O)Nc1ccc2c(c1)nc(CCNC(=O)C1CC1)n2C,·,·,105,-24
CC(C1CC1)N(C(=O)c1ccc(N)cc1)c1ccccc1 (stereo unspecified),78,91,·,-23
CCOC(=O)CSc1nc2c(cc1C#N)CCCC2,94,89,104,·
COC(=O)c1ccc(N=Cc2nc(-c3ccc(Br)cc3)oc2O)cc1,·,·,103,1
Cc1ccc2nc(NC(=O)CCCC(=O)O)sc2c1,92,93,103,-3
COc1cccc(CNC(=O)c2[nH]c3cc(C)ccc3c2Sc2ccc(Cl)cc2)c1OC,116,97,104,·
COc1ccc(OC)c(CNC(=O)C2CCN(c3nc4ccccc4nc3C(F)(F)F)CC2)c1,108,98,103,·
COC(=O)CC1Nc2ccccc2NC1=O (stereo unspecified),90,97,115&110,-62
Cc1cc2nsnc2c2nsnc12,94,94,105,-33
S=c1nc2[nH]c3ccc(Br)cc3c2n[nH]1,91,76,107&104,-33
CN(C)S(=O)(=O)c1cccc(CSc2nc3ccccc3n2CCC#N)c1,73,93,·,-35
CCN(CC(=O)Nc1cc(Cl)ccc1C)CC(=O)N1CCOC1=O,92,90,·,-4

# Some entries already given, limited to GIV Gai3 FP, Sa growth 42C second temp and HCMV UL50-53 inh:
mol	GIV Gai3 FP	Sa growth 42C second temp	HCMV UL50-53 inh
O=C(CC1C(=O)N(c2ccccc2)C(=O)N1Cc1ccc(F)cc1)Nc1cccc(F)c1 (stereo unspecified)	101	66	·
O=C(O)CCC(=O)N1N=C(c2ccc(Br)cc2)CC1c1cn(-c2ccccc2)nc1-c1ccccc1 (stereo unspecified)	105	·	4

# Going on with the list:
SMILES,Sa growth 42C,Sa growth 42C second temp,GIV Gai3 FP,HCMV UL50-53 inh
O=C(O)C1CC(=O)N(C2CCCC2)C1 (stereo unspecified),98,92,104,·
CCOc1ccc2oc(C(=O)OCC(=O)N3CCCc4ccccc43)c(C)c2c1,81,92,·,-13
c1ccc(CN2CCSCC2)cc1,85,105,105,5
CCOC(=O)c1c(C)[nH]c(C)c1S(=O)(=O)NCC(=O)N1CCN(c2ccccc2OC)CC1,108,88,107,·
O=C(NC1CCCCCC1)c1c(O)c2ccccc2[nH]c1=O,72,89,102,-14
COc1cccc(CNC(=O)c2ccc(CS(=O)c3ccccc3)o2)c1 (stereo unspecified),93,85,109,·
O=c1c(CN2CCOCC2)c[nH]c2ccccc12,·,·,104,-22
CCOC(=O)c1c(C)[nH]c(C)c1S(=O)(=O)NCC1CCN(Cc2ccccc2F)CC1,112,89,93,11
COc1cc2[nH]c(=S)nc(Nc3ccc(NC(C)=O)cc3)c2cc1OC,86,77,118,10
Cc1ccc2oc(-c3cc(NC(=O)c4ccc5c(c4)OCCO5)cc(C)c3O)nc2c1,88,84,100&101,-23&-12
CC(Oc1ccccc1)C(=O)N[C@@H]1C(=O)N2[C@@H]1SC(C)(C)[C@@H]2C(=O)O (stereo partly specified),-1.1*,-0.8*,·,-38&3
C=CCN1C(=O)OC(C)(CCC=C(C)C)C1(C)O (stereo unspecified),95,85,101,-20
O=C(/C=C/c1ccco1)Nc1cccc(-c2nc3ccccc3o2)c1,105,69,115,8
COC(=O)c1ccc(NC(=O)C23CC4CC(CC(Cl)(C4)C2)C3)cc1,112,96,·,3
COc1ccc(CC(=O)N2CCc3cc(-c4noc(C)n4)ccc32)cc1OC,·,·,104,-26
COc1ccc2c(c1)Nc1ccccc1S2,104,93,·,5
Cc1cc(F)ccc1-n1nnc(C(=O)O)c1C,·,·,98,-10
N#Cc1cn(CC(=O)N2CCCC2)c2ccccc12,118,80,101,-20
Cc1ccc(Cl)cc1N1CCN(C(=O)CCn2c(=O)c3cccn3c3cccnc32)CC1,94,68,100,·
O=C(O)C1C(=O)NCC1c1ccccc1 (stereo unspecified),100,94,103,-4
NNC(=O)C(O)c1ccccc1 (stereo unspecified),68,86,·,-4
Cc1ccc(CNC(=O)c2cc(=O)c3cc(C)cc(C)c3o2)cc1,95,96,114,6
CCn1c2c(c(=O)n3ncc(C(=O)N4CCN(c5ccc(C(C)=O)cc5)CC4)c13)CN(Cc1ccc(OC)cc1)CC2,100,94,106,·
Cc1cc2nc(CSc3nnc(NC(=O)c4ccc(C)c(F)c4)s3)cc(=O)n2o1,·,·,103,-5
O=C(O)CSCC(=O)Nc1ccc(-c2csnn2)cc1,100,103,96,0

# Record cards, as listed above:
# `COC(=O)c1ccc(NC(=O)C23CC4CC(CC(Cl)(C4)C2)C3)cc1` as listed: Sa growth 42C = 112; Sa growth 42C second temp = 96; GIV Gai3 FP = ·; HCMV UL50-53 inh = 3
# `Cc1ccc(Cl)cc1N1CCN(C(=O)CCn2c(=O)c3cccn3c3cccnc32)CC1` as listed: Sa growth 42C = 94; Sa growth 42C second temp = 68; GIV Gai3 FP = 100; HCMV UL50-53 inh = ·
# `NNC(=O)C(O)c1ccccc1` (stereo unspecified) as listed: Sa growth 42C = 68; Sa growth 42C second temp = 86; GIV Gai3 FP = ·; HCMV UL50-53 inh = -4

# Back to the main list, starting three compounds before the break.
SMILES,Sa growth 42C,Sa growth 42C second temp,GIV Gai3 FP,HCMV UL50-53 inh
CCn1c2c(c(=O)n3ncc(C(=O)N4CCN(c5ccc(C(C)=O)cc5)CC4)c13)CN(Cc1ccc(OC)cc1)CC2,100,94,106,·
Cc1cc2nc(CSc3nnc(NC(=O)c4ccc(C)c(F)c4)s3)cc(=O)n2o1,·,·,103,-5
O=C(O)CSCC(=O)Nc1ccc(-c2csnn2)cc1,100,103,96,0
CCCc1cc(=O)[nH]c(SCc2cc(C(=O)OC)c(C)o2)n1,92,94,·,-10
Cn1c(C(=O)NC2CCCC2)cc2oc3ccccc3c21,111,88,102,·
Nc1nc2ccccc2oc1=O,91,62,105,-76
CCN(Cc1ccccc1)C(=O)c1cc2c(=O)oc3ccccc3c2s1,111,86,97,-6
O=C(CCN1CCC(c2ccc(Cl)s2)=N1)c1ccc(Cl)s1,106,104,114,7
N#CCCn1cc(C(=O)CSc2ccccn2)c2ccccc21,84,99,·,9
Cc1cc(NC(C)C)n2nc(-c3ccc(Cl)cc3)c(C)c2n1,·,·,108,-25
O=C(CSc1ncnc2ccccc12)NC(c1ccccc1)c1ccccc1,115,87,·,-18
O=C(Nc1cccnc1)c1ccc2snnc2c1,80,80,108,-40
Cc1[nH]c2ccc(C(=O)N3CCOCC3)cc2c1C,·,·,101,-16
C=CCN(CC(=O)O)S(=O)(=O)c1ccc(Cl)cc1,75,92,·,-16
O=C(CCc1ccccc1)Nc1nccs1,92,72,103,-13
CCn1c(SCC(=O)Nc2cccc(Cl)c2C)nnc1C1CC1,100,90,104,-19
O=c1[nH]c2ccc(Nc3cc(N4CCOCC4)ncn3)cc2[nH]1,100,93,103,-14
CCOc1ccc(NC(=O)C2CCCN(c3ccc(Sc4ccc(C)cc4)nn3)C2)cc1 (stereo unspecified),90,108,106,8
Cc1csc2sc(/C=C(\C#N)S(C)(=O)=O)c(C)c12,104,90,102,4
COc1ccc(C(CC(=O)Nc2cccnc2)N2Cc3ccccc3C2=O)cc1 (stereo unspecified),101,91,100,-32
O=C(O)CCC(=O)N1CCc2cc(S(=O)(=O)NCc3cccs3)ccc21,99,96,103,9
CC(C1CC1)N(C(=O)/C=C/c1ccccc1)c1ccccc1 (stereo unspecified),91,62,·,2
CC(O)(CC(=O)O)C(F)(F)F (stereo unspecified),105,90,·,-34
O=c1cc(CN(CCO)Cc2ccccc2)nc2nc(-c3ccc(Cl)cc3)[nH]n12,·,·,101,-19
CCc1nn2c(=O)cc(COC(=O)c3ccccc3)nc2s1,98,90,102,·
COc1ccc(C(=O)NCC(c2ccco2)S(=O)(=O)c2cccs2)cc1 (stereo unspecified),109,86,93,·
CCn1cc(/C=N/O)c2ccccc21,94,84,102,4
CC(C)C(=O)Nc1c(C(=O)c2ccc(F)cc2)oc2ccccc12,88,89,101,·
SMILES,Sa growth 42C,Sa growth 42C second temp,GIV Gai3 FP,HCMV UL50-53 inh
O=C(CCCN1C(=O)/C(=C\c2ccco2)SC1=S)Nc1ccc2c(c1)OCO2,92,64,111,-34
CCCCCn1c(=O)c(Cc2ccccc2)c(O)c2ccccc21,99,97,94,-20
Cc1cc(C(=O)CSc2nnc(-c3cccs3)o2)c(C)n1CCc1ccc(F)cc1,102,96,·,-10
Cc1ccc(P(=Nc2ccccc2C(F)(F)F)(OCCN2CCOCC2)C(C)(C)C)o1 (stereo unspecified),101,92,·,-3
C=CCSc1nnc(NC(=O)c2ccc3c(c2)SC2=NS(=O)(=O)CCN23)s1,67,79,·,0
Cc1csc2nc(COC(=O)CNC(=O)c3ccccc3)cc(=O)n12,81,87,101&101,-22
CC(C)S(=O)(=O)c1ccc(N2CCN(Cc3ccc4c(c3)OCO4)CC2)nn1,·,·,101,7
CC(C)(C)OC(=O)N1CCC(c2c(C(=O)N3CCN(c4ccccn4)CC3)cnn2-c2ccc(F)cc2F)CC1,95,90,109,·
O=C(NCc1csc2ccc(Cl)cc12)c1ccno1,92,78,103,-22
CCC(=O)Nc1sc2c(c1-c1nc3ccccc3s1)CCN(C(C)=O)C2,92,84,104,-28
CCc1ccc(CNc2ccc3c(c2)ncn3CC)cc1,66,-1,100,-20
CCC(C)NC(=O)c1nc(-c2ccccc2)n(-c2ccccc2)n1 (stereo unspecified),98,87,·,-3

# Compound activity (PubChem)
